RanGTP-Imp inh = inhibitors of RanGTP-importin-beta interaction, primary screen, biochemical, FRET, CFP-Ran, YFP-importin-beta, homogeneous. inhibition, % (concentration not given with the values). cell-free CFP-Ran/YFP-importin-beta FRET ratio. 300,000 tested, 1.1% active. Ran GTPase (GTP-bound) - importin-beta complex;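 active = most replicates above 15%; inconclusive = exactly half above 15%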;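 also: 0% = DMSO wells and 100% = Ran loaded with GDP instead of GTP; wells of about 40 µL received 100 nL stock; the first replicate is given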
HNF4A DNA FP = change in binding of human HNF4A to DNA, primary screen, biochemical, fluorescence polarization, FITC-DNA. 360,000 tested, 0.3% active. Hepatocyte nuclear factor 4-alpha (Homo sapiens), P41235. activity change, % at 10 µM. 1 h. AID 1224865, 2016; in the data active = activity change above about 30%, passing the limit was not always enough;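 also: controls were the assay level and a saturating level of protein; the project sought stronger binding though the title names inhibitors; some compounds called inactive have numbers as strong as hits; positive values seem to mean higher polarization but the record does not say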
Target sequence (P41235 whole entry, looked up): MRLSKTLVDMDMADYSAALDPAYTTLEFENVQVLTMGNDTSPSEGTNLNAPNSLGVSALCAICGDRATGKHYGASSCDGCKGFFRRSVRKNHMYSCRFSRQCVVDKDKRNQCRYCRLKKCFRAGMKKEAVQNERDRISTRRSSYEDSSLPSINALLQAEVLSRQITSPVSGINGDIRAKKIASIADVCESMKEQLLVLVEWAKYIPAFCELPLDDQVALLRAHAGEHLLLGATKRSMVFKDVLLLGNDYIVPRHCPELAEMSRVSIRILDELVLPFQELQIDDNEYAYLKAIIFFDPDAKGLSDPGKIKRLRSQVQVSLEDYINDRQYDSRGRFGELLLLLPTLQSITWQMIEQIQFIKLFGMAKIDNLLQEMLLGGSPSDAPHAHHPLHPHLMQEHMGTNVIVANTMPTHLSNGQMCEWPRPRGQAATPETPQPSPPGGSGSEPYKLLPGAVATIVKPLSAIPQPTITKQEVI
Calb FLC = C. albicans growth inhibition with fluconazole, primary screen, CaCi-2 strain, Alamar Blue fluorescence; 300,000 tested, 0.57% active; AID 1979, 2009; C. albicans CaCi-2 (fluconazole-resistant clinical isolate) + fluconazole, 48 h; growth inhibition, % (no concentration beside the values);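 active = most replicates above 75%; inconclusive = exactly half above 75%; inactive = most below 75%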;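 also: all wells also contain fluconazole at 8 µg/ml as a sub-toxic cotreatment; 0% = median of DMSO wells and 100% = median of geldanamycin control wells; wells of about 8 µL received 7.5 nL stock; the first replicate is given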
LANA-H2B inh = blockers of LANA interaction with H2A/H2B – biochemical, FP readout, HTS, primary screen. cell-free LANA-H2A/H2B peptide, fluorescence polarization. inhibition, % (no concentration beside the values). 320,000 tested, 0.6% active; in the data active = inhibition mostly above about 10%, no sharp cut-off; inactive = mostly below about 6.7%;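 also: stock transfer was 7.5 nL into about 10 µL; 0% = median of vehicle wells and 100% = median of positive control wells; one replicate is shown; the record names a cut of 25% in any replicate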
Vif A3G = inhibitors of Vif binding to APOBEC3G peptide, primary screen, biochemical, TR-FRET, GST-Vif 1-94, biotin-A3G peptide, dose response retest (AID 1117319). Virion infectivity factor (Human immunodeficiency virus type 1 group M subtype B (isolate …. TR-FRET GST-Vif / biotin-A3G peptide binding; higher % means a stronger effect; test concentration not given here; strong numbers were not always called active. one-dose inhibition, %; IC50 in µM for titrated hits. 260,000 tested, 0.57% active;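 active = above the screen mean plus three standard deviations and confirmed in dose response; inconclusive = results disagree or hit not tested in dose response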;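 also: Vif residues 1-94 fused to GST binding biotinylated APOBEC3G peptide 110-148; 0% = full assay without inhibitor and 100% = GST in place of GST-Vif; retest series ran down from 100 µM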
ALR inh = inhibitors of human ALR sulfhydryl oxidase, primary screen, biochemical, H2O2 detection, HRP-luminol luminescence, single point; purified ALR, DTT oxidation; FAD-linked sulfhydryl oxidase ALR (Homo sapiens), P55789; 290,000 tested, 3.8% active; AID 485317, 2010; inhibition, % (no concentration beside the values);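 active = mean and each replicate at 75% or more; inconclusive = only one of the two met; inactive = neither met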;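 also: stock transfer was 7.5 nL into about 7.5 µL; 0% = neutral wells and 100% = wells with inactivated enzyme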
Target sequence (P55789 whole entry, looked up): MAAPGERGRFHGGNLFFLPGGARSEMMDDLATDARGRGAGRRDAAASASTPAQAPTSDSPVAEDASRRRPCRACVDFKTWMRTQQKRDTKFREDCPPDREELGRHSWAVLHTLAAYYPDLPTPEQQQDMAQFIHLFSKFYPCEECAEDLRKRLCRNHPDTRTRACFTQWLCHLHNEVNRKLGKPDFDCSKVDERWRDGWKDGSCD
B2AR ag = beta2AR agonists driving receptor internalization, primary screen, cell-based, FAP fluorogen, flow cytometry | Beta-2 adrenergic receptor (Homo sapiens), P07550 | Am2.2-beta2AR cells; reference of the scale not given here | response, % (test concentration not listed) | 340,000 tested, 0.43% active;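 active = response above a set limit, near 3 SD of response in nonfluorescent compounds, cut at about 42% in these data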;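 also: stock transfer was 100 nL into about 11 µL; a reference agonist was the positive control; negative values mostly stem from fluorescent compounds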
Target sequence (P07550 whole entry, looked up): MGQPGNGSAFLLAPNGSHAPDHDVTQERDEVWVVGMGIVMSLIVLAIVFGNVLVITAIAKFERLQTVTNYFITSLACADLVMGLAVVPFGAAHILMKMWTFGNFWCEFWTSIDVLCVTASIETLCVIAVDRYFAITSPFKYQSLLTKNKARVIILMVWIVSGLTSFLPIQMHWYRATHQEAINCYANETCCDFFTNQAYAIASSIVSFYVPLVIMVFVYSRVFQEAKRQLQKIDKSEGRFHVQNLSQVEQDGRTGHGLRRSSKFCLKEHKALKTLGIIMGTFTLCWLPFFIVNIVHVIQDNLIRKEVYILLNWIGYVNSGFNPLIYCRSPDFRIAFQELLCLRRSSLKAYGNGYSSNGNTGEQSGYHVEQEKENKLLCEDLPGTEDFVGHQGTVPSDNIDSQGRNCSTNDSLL
* = called active by the depositor; ? = inconclusive; . = no result given; & = joins results of further samples.

SMILES	RanGTP-Imp inh	HNF4A DNA FP	Calb FLC	LANA-H2B inh	Vif A3G	ALR inh	B2AR ag
CCn1c(Cc2ccccc2)nnc1SCC(=O)c1cccc([N+](=O)[O-])c1	2.7	3.6	17	4.3	13%	65	9
N#Cc1c(NC(=O)CSc2nnc(-c3ccccc3O)n2-c2ccccc2)sc2c1CCCC2	2.8	2.0	3	2.5	1%&-5%	-3	7
C[C@H](NC(=O)CCC1CCC(=O)N1)c1ccccc1 (some centres undefined)	-3.2	1.8	-1	0.1	.	-1	0
COc1ccc(NC(=O)COc2ccc(C(=O)c3ccc(F)cc3)cc2)cc1S(N)(=O)=O	-3.9	-1.5	3	-0.6	14%	0	-16
Cc1cccc(NC(=S)Nc2c(C)n(C)n(-c3ccccc3)c2=O)c1C	-2.7	0.7	4	-6.1	.	?	-7
O=C(CCS(=O)(=O)c1cccs1)Nc1ccc(C(=O)NCc2cccs2)cc1	0.7	-0.6	11	0.8	-5%	-4	3
CCc1ccc(NC(=S)/N=C(\N)Nc2nc(C)c3cc(CC)ccc3n2)cc1	?	2.5	-19	1.7	.	-1	4
CN(C(=O)CSc1cccc[n+]1[O-])c1ccccc1	.	1.8	.	-2.9	.	-2	5
CC(C)N1CCN(Cc2ccc(OC3CCCC3)cc2)CC1CCO (centres undefined)	2.5	1.8	-7	-2.4	.	-7	-9
Cc1ccn2cc(-c3ccc(NC(=O)c4ccco4)cc3)nc2c1	-2.6	1.0	-8	-0.6	-1%	15	-17
O=C(NCC1CCCO1)c1cc2c(=O)[nH]c3ccccc3c2s1 (centres undefined)	.	3.6	9	3.8	-6%	-12	-7
Cc1cc(C)nc(SCC(=O)OCC(=O)N(C)c2c(N)n(Cc3ccccc3)c(=O)[nH]c2=O)n1	2.1	0.8	6	-1.1	1%	-3	1
CCc1noc(C)c1C(=O)N1CCCSC1=Nc1ccccc1C(C)C	6.8	2.2	-10	1.8	7%	-1	8
O=C(Cc1cccc2ccccc12)NCC(=O)Nc1ccccc1F	-0.8	0.7	-3	-3.2	.	-12	4
CC(C)NC(=O)N(C)C[C@H]1Oc2c(NC(=O)C3CCCCC3)cccc2C(=O)N([C@H](C)CO)C[C@@H]1C	.	0.4	.	1.4	.	-2	5
CC(C)(C)c1ccc(OCCC(=O)OCC(=O)Nc2cccnc2Cl)cc1	-1.5	-6.0	3	2.7	-1%	5	-4
C=CCOC(=O)/C(=C/c1cccc2ccccc12)NC(=O)c1ccccc1	2.4	-2.0	-4	8.8	.	-14	-1
CC1CCCC(NC(=O)COC(=O)c2ccc3ncsc3c2)C1C (centres undefined)	.	1.7	.	-18	.	.	0
O=C(O)c1ccc(NS(=O)(=O)c2ccc(Cl)cc2)cc1	.	-0.5	6	-0.5	21%	-4	2
CCOc1ccc(NC(=O)COC(=O)c2ncc(Cl)c(Cl)c2Cl)cc1	1.6	-1.1	19	-3.4	11%	-3	-5
OCCC1CN(Cc2cc(F)ccc2F)CCN1CCCc1ccccc1 (centres undefined)	1.5	4.8	15	-1.1	.	-2	-4
CCOCc1nnc(NC(=O)COc2ccc3c(c2)OCO3)s1	7.0	-0.9	9	-3.5	5%	0	2
O=S(=O)(c1cccc2cccnc12)N1CCN(c2ccccc2)CC1	-4.1	3.8	3	0.0	3%	52	-1
O=C(O)C1OC(Oc2cc3oc(-c4ccccc4)cc(=O)c3c(O)c2O)C(O)C(O)C1O (centres undefined)	1.0	-4.3	9	5.1	?	-1	.
Cc1ccc(NS(=O)(=O)N2CCOCC2)cc1Cl	0.7	-0.7	-12	-1.4	.	11	-1

(next part)
SMILES	RanGTP-Imp inh	HNF4A DNA FP	Calb FLC	LANA-H2B inh	Vif A3G	ALR inh	B2AR ag
C[C@H](CO)N1C[C@H](C)[C@@H](CN(C)C(=O)Nc2ccccc2)Oc2ccc(NS(=O)(=O)c3cn(C)cn3)cc2C1=O	.	-5.0	.	-0.8	.	4	-11
CCCn1c(CN(Cc2ccccc2)Cc2ccccc2)nc2c1c(=O)n(C)c(=O)n2C	0.6	-4.0	1	3.2	-2%	-68	5
O=C(COC(=O)C1=COCCO1)Nc1c(F)cccc1F	3.2	-2.3	5	3.3	.	-9	1
CCOc1ccc(Nc2c3c(nc4ncnn24)CC(C)CC3)cc1 (centres undefined)	2.9	-1.5	7	1.2	-10%	-1	-1
O=C(Nc1ccnn1C1CCN(C/C=C/c2ccccc2)CC1)c1cccc(F)c1	4.2	-1.4	-3	-1.2	.	-1	0
CCOC(=O)C(=Nc1ccc(Cl)cc1)NO	-1.4	-2.4	-11	0.2	-4%	-5	4
CN(C)c1ccc(CN(C(=O)C2COc3ccccc3O2)C2CCS(=O)(=O)C2)cc1 (centres undefined)	-1.2	-4.5	0	-2.0	16%	41	3
CCCCSc1nc(CCC)cc(=O)[nH]1	-1.8	4.1	-40	-2.8	3%	-36	9
O=C(CC(=O)NCc1ccc(Cl)cc1)NCc1ccccc1	-3.3	0.8	-13	-2.2	-17%	-5	-2
O=C(COc1ccccc1)Nc1ccc(OC(F)(F)C(F)F)c(NC(=O)COc2ccccc2)c1	-4.8	-2.4	-15	-2.4	-2%	0	-2
Cc1ccccc1OCC(=O)Nc1ccc(Cc2ccncc2)cc1	3.6	-0.9	61	-4.3	.	-17	-10
Cc1cc(C)n(CC(=O)c2ccc(Br)cc2)c(=O)c1C#N	-2.2	1.3	20	.	-3%	.	0
Cc1cccc(NC(=O)CCc2nc3sc4c(c3c(=O)[nH]2)CCCC4)n1	2.9	3.7	-4	0.1	-4%	71	8
CCOC(=O)[C@@H]1[C@H]2COc3ccccc3[C@@H]2N2C(=O)N(c3ccc(C(F)(F)F)cc3)C(=O)[C@@]12C	.	-2.6	.	-1.8	.	6	-7
CC1=C(C#N)C(c2cn(-c3ccccc3)nc2-c2cccs2)C(C#N)=C(C)N1	5.6	3.0	-12	-4.8	-16%	-3	108*
Cc1cc(NCCCN2CCOCC2)n2ncc(-c3ccccc3)c2n1	2.3	-4.3	-8	3.0	2%	9	-4
CCCCN(Cc1nc2ccccc2c(=O)[nH]1)C(=O)COc1ccc(F)cc1Cl	.	-1.2	.	.	-1%	-2	9
Cc1ccc2oc(Nc3nc(-c4ccccc4)cc(=O)[nH]3)nc2c1	-2.7	.	-9	.	14%	.	.
C=CCSc1nncn1/N=C/c1ccc(OC)cc1	-1.0	-0.2	1	-1.2	9%	-1	-2
CCn1cc(C2C(C(=O)Nc3cc(C)ccn3)=C(C)NC3=C2C(=O)CC(C)(C)C3)c(C)n1 (centres undefined)	3.3	2.6	-12	-3.7	-3%	-11	-17
O=C(Cn1nc(-c2ccccc2)ccc1=O)Nc1cccc(NC(=O)c2ccccn2)c1	0.3	.	17	-1.5	9%	-4	.
CCn1cc(CNC(=O)/C=C/c2ccc([N+](=O)[O-])cc2)cn1	2.7	-0.5	3	3.0	.	-12	0
NC(=O)COc1ccc(-n2cnnn2)cc1	-1.1	-4.5	?	-5.4	4%	-16	2
CC(C)(C)C(=O)N1N=C(c2ccc(NS(C)(=O)=O)cc2)CC1c1cccs1 (centres undefined)	1.8	7.0	27	-0.7	-3%	-13	-3
CC1CCc2c(c3ccccc3n2C(=O)CCl)C1 (centres undefined)	1.9	3.1	0	2.4	6%	-11	22

Continued:
SMILES	RanGTP-Imp inh	HNF4A DNA FP	Calb FLC	LANA-H2B inh	Vif A3G	ALR inh	B2AR ag
CCOc1ccc(C(=O)OCC(=O)N2CCCC2)cc1OCC	-4.2	-2.0	1	-0.3	.	-6	-7
OC(COc1ccc(C2C=CCC2)cc1)CN1CCCCC1 (centres undefined)	5.5	42*	-18	-4.1	0%	-11	6
COc1ccc(-n2c(C)cc(C)c(C(C)=O)c2=S)cc1	-2.4	-2.9	-6	-3.0	4%	-4	-1
CC(=O)c1cccc(NC(=O)N2CCCC2C(=O)NCCC(C)C)c1 (centres undefined)	-0.8	2.7	4	0.8	2%	3	0
CCOC(=O)c1ccc(N2CN(CC)CNC2=S)cc1	-0.2	-4.8	1	-2.8	-3%	-11	7
COCCCNC(=O)c1ccc(CS(=O)(=O)c2ccc(OC)cc2)o1	3.4	4.2	0	0.8	10%	6	1
Cc1ccc(NS(=O)(=O)c2c(C)nc3sccn3c2=O)cc1	3.6	5.4	0	3.5	.	-1	9
O=[N+]([O-])c1ccc(N2CCOCC2)cn1	-0.3	6.5	-10	-1.7	-4%	-11	1
O=C(CCN1C(=O)c2ccccc2S1(=O)=O)Nc1ccccc1	-2.3	0.9	1	-17	-8%	-1	4
COc1ccc(-c2nc(-c3ccc(Br)o3)no2)cc1OC	1.6	2.6	-6	6.4	-7%	-15	-12
COc1cc(C2NC(=O)c3ccccc3O2)ccc1OC(C)C (centres undefined)	0.1	0.4	1	-1.7	.	.	10
c1cc(CN2CCN(C3CCCCCC3)CC2)ccn1	-3.1	0.3	-10	-0.6	.	-9	-4
Cc1ccc(NC(=O)c2ccc(CSc3nnnn3C)cc2)cc1	2.2	-1.6	2	3.6	-5%	37	10
O=C(CSc1ncnc2c1nnn2-c1ccc(F)cc1)NCc1ccco1	-6.9	2.8	6	4.9	3%	48	0
CCOc1ccccc1N1CCN(CC(=O)Nc2cc(C)on2)CC1	3.0	-0.8	33	-6.5	.	19	5
O=C(CSc1c2c(nc3ccc(Cl)cc13)CCCC2)NCc1ccco1	4.0	0.5	16	2.1	14%	?	4
COc1cc(C(CCN2CCCC(C)C2)c2c(OC)cc(OC)c3c2OC(=O)CC3c2ccc(N(C)C)cc2)cc(OC)c1OC (centres undefined)	2.5	-4.4	2	2.0	.	.	16
Cc1ccc(N(CC(=O)NC2CCCC2)C(=O)CCC(=O)Nc2nccs2)cc1C	-3.9	-0.7	1	2.4	.	-5	2
CCOC(=O)C1CCN(C(=O)Nc2ccc(C)c(Cl)c2)CC1	?	0.7	-14	0.4	-8%	-1	0
COCCN(CCOC)S(=O)(=O)c1ccc(C(=O)Nc2ccc(S(=O)(=O)Nc3nccc(C)n3)cc2)cc1	0.3	1.5	-3	0.2	0%	90*	2
COc1cc(CCC(=O)Nc2ccc(S(=O)(=O)N3CCOCC3)cc2)cc(OC)c1OC	.	3.7	.	12	-1%	-3	5
CCCCN(CCCC)CCCNC(=O)CC1Oc2ccc(C)cc2NC1=O (centres undefined)	1.1	5.2	-6	-6.2	-2%	2	-1
O=S(=O)(Nc1n[nH]c(C(F)(F)F)n1)c1ccccc1	1.5	3.2	6	2.7	-13%	.	8
CC(C)C(=O)Nc1ccc(N2CCN(C(=O)c3cccs3)CC2)cc1	-3.6	-1.0	47	-0.9	5%	-3	-2
O=[N+]([O-])c1ccc(N/N=C\c2cccn2-c2ccccc2)nc1	-29	34	7	1.8	18%	?	-15
CCCC(=O)Nc1cccc(NC(=O)c2ccc(C)c([N+](=O)[O-])c2)c1	-4.9	-0.9	3	-1.1	14%	30	2

In another format: 3 of the compounds above.
Molecule | RanGTP-Imp inh | HNF4A DNA FP | Calb FLC | LANA-H2B inh | Vif A3G | ALR inh | B2AR ag
CCOC(=O)C1CCN(C(=O)Nc2ccc(C)c(Cl)c2)CC1 | ? | 0.7 | -14 | 0.4 | -8% | -1 | 0
CC(=O)c1cccc(NC(=O)N2CCCC2C(=O)NCCC(C)C)c1 (centres undefined) | -0.8 | 2.7 | 4 | 0.8 | 2% | 3 | 0
CCCCN(CCCC)CCCNC(=O)CC1Oc2ccc(C)cc2NC1=O (centres undefined) | 1.1 | 5.2 | -6 | -6.2 | -2% | 2 | -1

Screens as filed in PubChem BioAssay.
